# AID504770: growth inhibition of E. coli YBA685, primary screen, V. cholerae RctB inhibitors. z-score (no concentration beside the values). 130,000 compounds, 0.27% hits. AID 504770, 2011. E. coli YBA685 rctB-dependent plasmid, OD600 growth, 3 h; hits give low values;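 active = z-score under -2 on both plates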;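 also: wells of about 30 µL received 100 nL stock; score is relative to mean and SD of the test wells; the first replicate is given; strong numbers were not always called active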
# CapD inh: Bacillus anthracis CapD inhibitors, primary screen, biochemical, fluorescence intensity. CapD gamma-glutamyltranspeptidase (Bacillus anthracis Ames Ancestor). purified CapD enzyme, fluorescence intensity read-out; hits give low values; some hits fall short of the stated cut. z-score (test concentration not listed). 140,000 compounds, 0.23% hits;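 active = z-score under -4 in either of two replicates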;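 also: stock transfer was 100 nL into about 40 µL; score is relative to mean and spread of the plate; one replicate is shown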
# * marks the source's active call; other numbers are inactive results; i = inactive; / = no result given; & = joins results of further samples.
# Each structure is followed by: AID504770 | CapD inh
CN(C)c1ccc(C(C(=O)NC2CCCCC2)N(Cc2ccco2)C(=O)Cc2c[nH]c3ccccc23)cc1 (centres undefined)
  0.1 | /
CN1C(=O)S/C(=C/c2ccc(OCc3ccc(C(=O)O)o3)cc2)C1=O
  -0.95 | /
NC(=O)CNC(=O)Cc1c(Cl)cccc1Cl
  0.3 | /
O=C(/C=C/c1ccco1)OCC(=O)N1CCCc2ccccc21
  -0.5 | /
NS(=O)(=O)c1ccc(Cl)cc1Sc1ccccc1C(=O)O
  0.05 | 0.82
Cc1cc(N(Cc2ccc(Cl)cc2)C(=O)c2ccc(Cl)cc2)no1
  -0.95 | -0.345
O=c1[nH]c(=O)n([C@H]2CC(O)[C@@H](CO)O2)cc1I (some centres undefined)
  / | 0.03
CCC(=O)Nc1cccc(C(=O)OC)c1
  0.25 | 0.215
CN(Cc1ccc2c(c1)OCO2)C1CCCCC1
  0.55 | 0.595
CCCSc1nc2c([nH]c3ccccc32)c(=O)n1-c1cc(C)cc(C)c1
  0.2 | -0.19
Cc1ccsc1/C=N/n1cnc2scc(-c3cccs3)c2c1=O
  0.15 | /
CCOC(=O)C1=C(O)C(=O)N(C(C)(C)C)C1
  1.65 | 0.14
CC(=O)OCC1O[C@@H](n2c(F)c(C)c(=O)[nH]c2=O)C(OC(C)=O)[C@H](OC(C)=O)[C@@H]1OC(C)=O (some centres undefined)
  / | -0.32
O=c1c(C=Nc2ccccc2Cl)c(C(F)(F)F)[nH]n1-c1ccccc1
  / | 0.18
Cc1cc(/C=C(/C#N)c2ccc(Cl)cc2)c(C)n1C(C)C
  1.65 | -0.11
COc1ccc(-c2nc3sc(-c4ccc(OC)cc4)nc3s2)cc1
  0.85 | /
Clc1ccc(-c2nnc(NCCN3CCOCC3)c3ccccc23)cc1
  / | -1.02
CC(C)(C)NCC(O)Cn1c2ccc(Cl)cc2c2cc(Cl)ccc21 (centres undefined)
  / | -0.15
Cc1ccc2c(c1)NC(SCC(=O)NCc1ccccc1)=NS2(=O)=O
  -0.15 | 0.15
Cc1c(C(=O)NCC2CCCO2)sc2ncnc(N3CCN(c4ccccc4F)CC3)c12 (centres undefined)
  / | -0.28
N#C/C(=C/Nc1cccc(Cl)c1)c1nc(-c2ccc(F)cc2)cs1
  1 | -0.39
CCCC(=O)Oc1c(Sc2ccccc2)c(C)nn1-c1ccccc1
  / | 0.255
Cc1nc2nc(C(F)(F)F)[nH]c2cc1Br
  0.4 | /
O=C(c1cccc2ccccc12)N1CCCc2ccccc21
  -0.95 | -0.09
COc1ccc(OC)c(Nc2nc(-c3cc4cc(Br)ccc4oc3=O)cs2)c1
  / | -0.15
Cc1ccc(/C=C/C(=O)NCC(c2ccco2)N2CCCC2)o1 (centres undefined)
  -0.3 | /
COc1ccc(CNC(=O)c2c(O)nc3scc(C)n3c2=O)cc1
  0.75 | /
CSc1ccc(/C=C/C(=O)N2CCC(C(N)=O)CC2)cc1
  0 | /
O=C(c1cc2ccccn2n1)N1CCC2(CC1)OCCO2
  0.05 | -0.34
O=C(CSc1nc2cc(Cl)ccc2o1)c1ccc(F)cc1
  0 | 0.32
CCOc1nc(C)cc(COC)c1C#N
  / | 0.385
O=C(N/N=C/C1CC=CCC1)c1ccccc1 (centres undefined)
  2.3 | -0.235
CCOc1ccc2nc(NC(=O)C3CC3)sc2c1
  -0.75 | i
CCOc1ccc(S(=O)(=O)N2CCN(c3cccc(Cl)c3)CC2)c2cccnc12
  / | -1.27
Cc1cc(C)cc(C(=O)OCC(=O)c2c(N)n(C)c(=O)n(C)c2=O)c1
  0.45 | /
N#CCCn1cc(C(=O)O)c(-c2ccccc2)n1
  -1.2 | -0.315
O=S1(=O)CC(O)C(NCc2ccco2)C1 (centres undefined)
  -0.75 | 0.37
COc1ccc(-c2nc(CC(=O)NCC(c3ccco3)N(C)C)cs2)cc1 (centres undefined)
  -0.3 | /
Cc1nc2c(=O)n(C)c3c(c(=O)n(C)c(=O)n3C)c2o1
  -0.2 | 0.4
Cc1cc(C)c(Nc2n[nH]c(=O)[nH]2)cc1C
  -0.45 | 0.95
O=C(NCc1csc(-c2cccs2)n1)Nc1ccc(F)cc1F
  -0.1 | 68.3
O=C1C=C(c2ccccc2)C[C@H](c2cccc([N+](=O)[O-])c2)[C@H]1n1cnc([N+](=O)[O-])n1
  / | -0.375
COc1nc(SC)nnc1C
  -0.2 | -0.27
O=C(c1ccc(Cl)cc1)C(Sc1ccc(Cl)cc1)c1ccccc1 (centres undefined)
  / | 0.015
CC(C)(C)C(=O)CSc1nnc(-c2ccccc2)o1
  0 | /
CCOC(=O)c1c(C)n(-c2ccccc2)c2ccc(OC(=O)c3ccccc3C)cc12
  / | 0.8
c1cn(-c2ccc(-c3ccn[nH]3)cc2)cn1
  1.65 | 0.09
COc1ccc(C=Nc2cccc(C(N)=O)c2)cc1OC
  -0.6 | 1.83
CCN1C(=O)/C(=C2\C=Cc3cc(C)ccc3N2CC)OC1=S
  0.6 | 0.165
COc1ccc(C2=NN3C(C2)c2cc(OC)ccc2OC3c2ccc(OC)c(OC)c2)cc1 (centres undefined)
  / | -0.47
O=C(O)c1nccnc1C(=O)NCc1csc2ccccc12
  -0.3 | -0.89
Clc1cccc(Cl)c1-c1nn[nH]n1
  / | 0.61
Cc1ccc(S(=O)(=O)c2nc(-c3ccccc3)oc2N2CC(C)OC(C)C2)cc1 (centres undefined)
  0.2 | /
NC(=O)C1CCCN(C(=O)CCCSc2nc3ccccc3s2)C1 (centres undefined)
  0 | /
CN(C)S(=O)(=O)Nc1ccc(Cc2ccncc2)cc1
  -0.65 | /
O=C(Nc1nc2ccc([N+](=O)[O-])cc2s1)c1ccc(S(=O)(=O)N2CCc3ccccc3C2)cc1
  / | -0.52
CSc1ccc(/C=c2\s/c(=C(/C#N)C(=O)N3CCN(C)CC3)n(-c3cccc(C)c3)c2=O)cc1
  -0.3 | /
O=C(Nc1nnc(CCS(=O)(=O)c2ccc(Br)cc2)s1)c1ccc([N+](=O)[O-])cc1
  / | -0.075
Cc1[nH]c(=O)c(C#N)c(C)c1CCC(=O)N1C(=NCc2ccccc2)SCC1(C)C
  0.4 | /
Cc1ccc(C(=O)C2CCOC(C)(C)C2)cc1 (centres undefined)
  -0.7 | 0.035

# 3 compounds out of the list, arranged by heavy-atom count, ascending.
# Each structure is followed by: AID504770 | CapD inh
Cc1ccc(C(=O)C2CCOC(C)(C)C2)cc1 (centres undefined)
  -0.7 | 0.035
O=C(Nc1nnc(CCS(=O)(=O)c2ccc(Br)cc2)s1)c1ccc([N+](=O)[O-])cc1
  / | -0.075
CCOC(=O)c1c(C)n(-c2ccccc2)c2ccc(OC(=O)c3ccccc3C)cc12
  / | 0.8

# Continued:
# Each structure is followed by: AID504770 | CapD inh
O=C(COC(=O)c1ccc(-c2nnc(-c3ccccc3)o2)cc1)c1ccc(F)cc1
  0 | /
N#Cc1ccc(COC(=O)CSC(=S)N2CCOCC2)cc1
  -0.45 | /
O=C(CCN1C(=O)COc2ccccc21)NCc1ccc(F)cc1Cl
  1.1 | 0.095
CCC(Sc1nc2ncccc2c(=O)n1CC1CCCO1)C(=O)Nc1cccc(OC)c1 (centres undefined)
  -0.45 | 73.1
OC(CN1CCN(Cc2ccc3c(c2)OCO3)CC1)c1ccccc1 (centres undefined)
  0.6 | 0.295
Cc1cc(C)c(CSc2ccccn2)c(C)c1
  / | -0.37
CCS(=O)(=O)c1ccc(O)c(N=Cc2ccc(C)o2)c1
  0.75 | /
CN(C(=O)c1ccccc1)C(=O)N(C)C(=O)c1ccccc1
  1.6 | -0.005
Cn1c(O)c(N=NC(=S)Nc2ccccc2)c2ccccc21
  2 | /
CC(N)C(c1ccccc1)N1CCOCC1 (centres undefined)
  1.1 | /
CCOC(=O)c1sc2ncnc(N3CCc4ccccc4C3)c2c1C
  -0.4 | 0.505
N#Cc1ccc(CONC(=O)c2cccs2)cc1
  -1.25 | /
O=C(NCCC1=CCCCC1)OCC#Cc1ccccc1
  / | -0.545
Cc1ccc(NC(=O)C2C3/C=C\CCCCC32)cc1 (centres undefined)
  2.3 | 0.585
Cc1ccc(S(=O)(=O)c2c[nH]c(=S)[nH]c2=O)cc1
  0.05 | 0.035

# Entries shown so far that contain a COOH group (4):
# Each structure is followed by: AID504770 | CapD inh
CN1C(=O)S/C(=C/c2ccc(OCc3ccc(C(=O)O)o3)cc2)C1=O
  -0.95 | /
NS(=O)(=O)c1ccc(Cl)cc1Sc1ccccc1C(=O)O
  0.05 | 0.82
N#CCCn1cc(C(=O)O)c(-c2ccccc2)n1
  -1.2 | -0.315
O=C(O)c1nccnc1C(=O)NCc1csc2ccccc12
  -0.3 | -0.89

# (further entries)
# Each structure is followed by: AID504770 | CapD inh
N#CC1=C([S-])N[C@@](O)(c2ccccc2)[C@H]([n+]2cccc3ccccc32)[C@H]1c1ccc(Br)cc1
  / | 0.155
C=CCn1c(SCC(=O)c2cccs2)nc2scc(-c3ccccc3)c2c1=O
  0.85 | /
CCOC(=O)C1=C(C)N=c2s/c(=C/c3ccc(N4CCOCC4)o3)c(=O)n2C1c1ccc(OC)c(OC)c1 (centres undefined)
  / | -1.7
CC(C)CC(NC(=O)C1CCC(C)CC1)C(=O)NCc1cccs1 (centres undefined)
  0.35 | 0.015
CC1(C)CC(=O)C2=C(C1)OC1=C(C(=O)CC(C)(C)C1)C2c1cc(Cl)c(O)c(Cl)c1
  / | -0.565
CC1(C)CC(=O)C2=C(C1)OC1=C(C(=O)CC(C)(C)C1)C2c1ccc(OCC(=O)Nc2ccc3c(c2)OCO3)cc1
  / | -0.35
Cc1sc2ncn(CC(=O)N(C)Cc3ccc(Br)s3)c(=O)c2c1C
  0.55 | /
O=C(N/N=C/c1ccsc1)C1CC1
  1 | /
Cc1cc(Br)c(NC(N)=S)c(Br)c1
  / | 0.49
Cc1cccc(CSc2nc3c(c(=O)[nH]2)C(C(C)C)C2=C(CC(C)(C)CC2=O)N3)c1 (centres undefined)
  0.1 | 0.305
CCn1nc(C(=O)Nc2nccs2)c2ccccc2c1=O
  -0.6 | /
C=CCN(c1ccccc1C(=O)NCC(=O)O)S(=O)(=O)c1ccc(C)cc1
  / | 0.605
CCc1ccc(CN2CCN(Cc3cccc(OC)c3)CC2)cc1
  -0.35 | -0.595
O=C1C(C=Nc2ccccc2O)=C(O)c2ccccc21
  1.85 | -0.975
O=C(c1ccc2c(=O)n(CCC3=CCCCC3)c(=S)[nH]c2c1)N1CCCC1
  0.85 | 0.655

# Laid out differently: two of the compounds above
Cc1sc2ncn(CC(=O)N(C)Cc3ccc(Br)s3)c(=O)c2c1C
  AID504770: 0.55
  CapD inh: /

O=C(N/N=C/c1ccsc1)C1CC1
  AID504770: 1
  CapD inh: /

# (further entries)
structure	AID504770	CapD inh
O=C(NC1CCCC1)C1CC(c2ccc(F)cc2)=NO1 (centres undefined)	-0.25	-0.33
O=C(NCn1ccc(=O)[nH]c1=S)c1ccccc1	-0.3	-0.305
CN1CCN(Cc2coc3ccccc3c2=O)CC1	-0.35	0.335
O=C(CSc1nnc(-c2sc3ccccc3c2Cl)o1)NCC(F)(F)F	0.1	/
O=C(O)c1ccc(-n2cc(-c3ccncn3)cn2)cc1	/	1.07
C1CCC(NCC2OCCCCO2)CC1	0.3	/
CCOC(=O)C1=C(N)OC2=C(C(=O)CC(c3ccccc3)C2)C1c1cccc(OC)c1OC (centres undefined)	/	0.35
CCC(=O)Nc1nnc(SC)s1	-0.6	-0.555
COC(=O)c1cc(NC(=O)c2cc(C(F)(F)F)cc(C(F)(F)F)c2)ccc1N1CCOCC1	/	0.48
Oc1ccc(OCc2ccccc2)cc1	1.45	0.185&4.56
Cn1c(Cc2ccccc2)nnc1SCN1C(=O)c2ccccc2C1=O	-0.2	/
CC1C(=O)CCN(C(C)(C)C)C1C (centres undefined)	-0.65	-0.33
CSCCC(NC(=O)c1ccc(C(F)(F)F)cc1)C(=O)NN=Cc1cccc(Oc2ccc(C(C)(C)C)cc2)c1 (centres undefined)	/	0.245
CC(=O)Nc1nc(-c2cccc3ccccc23)cs1	1.25	2.04
CCOC(=O)Cc1nnc(-c2ccc(Cl)cc2)o1	-1.1	0.075
O=C(NCc1ccco1)/C(=C/c1cn(-c2ccccc2)nc1-c1cccs1)NC(=O)c1ccccc1	-0.5	6.17
CCOC(=O)CSc1nc(N)c2c(C)c(C)sc2n1	0	-0.215
COC(=O)C1(C)Cc2c([nH]c3ccccc23)C(c2ccccc2)N1 (centres undefined)	0.05	0.925
FC(F)(F)c1cc(Cl)c(N/N=C/c2cccs2)c(Cl)c1	/	-0.565
Cc1cccc(COc2coc(CN3CCc4ccccc4C3)cc2=O)c1	0.55	/
CCOC(=O)c1ccc(-c2ccc(/C=C3/C(=O)NC(=S)N(c4ccc(OC)cc4)C3=O)o2)cc1	/	-0.665
CCC(Sc1nnc(CSc2ncccn2)n1-c1ccc(Cl)cc1)C(=O)OC (centres undefined)	0.2	-0.37
CC(C)(C)c1cn2c3ccccc3nc2n1CCCO	-0.6	3.33
CO/N=C\c1ccc(Sc2c(Cl)cccc2Cl)c([N+](=O)[O-])c1	/	-0.88
O=C(O)c1cccc2cccc(I)c12	/	3.03
COc1ccccc1Cn1c(=S)[nH]c2cc(C(=O)N3CCN(C4CCCCC4)CC3)ccc2c1=O	/	-0.79
COc1ccc(OC)c(C2C(C(=O)OC(C)C)=C(C)NC3=C2C(=O)CC(c2ccc(Cl)cc2)C3)c1 (centres undefined)	/	4.38
Cc1cccc(NC(=O)c2ccc(Cl)cc2N)n1	-0.35	105
COc1ccccc1C1CCN(C(=O)c2cccc([N+](=O)[O-])c2)CC1	/	0.785
CSCCC(C(=O)OC1CCOC1=O)N1C(=O)c2ccccc2C1=O (centres undefined)	0.65	/
CC(C)C(=O)Nc1nncs1	-0.25	/
Cc1ccc(-c2csc(-c3ccno3)n2)c(C)c1	-0.55	4.86
CC1(C)C2CC=C(COCC(O)CNC3CC3)C1C2 (centres undefined)	-0.35	/

# Source: PubChem (ICCB-Longwood Screening Facility, Harvard Medical School)
